# Bioassay records from PubChem BioAssay.
# Sa RN4220 lethal: kills Staphylococcus aureus RN4220. S. aureus RN4220 growth, OD600, 16 h. inhibition, % (concentration not given with the values). 330,000 compounds, 0.33% hits;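 active means z-score of -3 or lower and OD600 up to 0.18 on both plates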;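 further: plate controls were untreated cells for no effect and reference antibiotic for full effect; stock transfer was 100 nL into about 80 µL; one replicate is shown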
# BJeLR viability: kills HRASV12-expressing BJeLR cells. BJeLR (HRASV12) viability, CellTiter-Glo ATP luminescence, 48 h; reference of the scale not given here. inhibition, % (concentration not given with the values). 300,000 compounds, 0.17% hits;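 active means replicate mean above 50%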;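 further: 50 nL library stock added to about 25 µL; numbers are from one replicate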
# Sa ugtP lethal: kills S. aureus RN4220 lacking UgtP. growth inhibition, % (concentration not given with the values). 330,000 compounds, 0.54% hits. AID 1259309. S. aureus RN4220 ugtP deletion, OD600 growth, 16 h; some inactives read as strong as hits;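 active means z-score under -3 and OD600 up to 0.15 on both plates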;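 further: plate controls were untreated wells for no effect and antibiotic for full effect; wells of about 80 µL received 100 nL stock; the first replicate is given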
# PrP 5UTR inh: suppresses PrP 5' UTR mRNA reporter expression | cell-based PrP 5' UTR mRNA reporter, plate reader | inhibition, % (no concentration beside the values) | 340,000 compounds, 0.35% hits | AID 488862;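 active means every replicate at 50% or more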;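 further: 0 = median of the neutral control wells; tested in H4 reporter cells; numbers are from one replicate; inactives centre near -14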
# Mtb hypoxia rep: Mtb hypoxia fluorescent reporter inhibition; M. tuberculosis hypoxia-regulated fluorescent reporter, fluorescence; fluorescence inhibition, % (test concentration not listed); 300,000 compounds, 0.1% hits; AID 1159583;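 active means 35 to 45% if threefold the growth effect, above 45% if 1.5-fold the growth effect; inactive means the rest, general growth blockers included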;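 further: wells of about 50 µL received 100 nL stock; 0% = vehicle wells and 100% = reference inhibitor wells; whole bacteria with a GFP reporter of the hypoxia response; strong numbers were not always called active; many hits fall short of the cut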
# Bead autofluor: counter-screen for toxin protease inhibitors: compound fluorescence | compound autofluorescence counterscreen, microsphere flow cytometry; stronger effect = higher value | 360,000 compounds, 3.1% hits | fluorescence intensity (no concentration beside the values);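 active means at least 3 SD above the mean of all compounds, about 16000 in these data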;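 further: 100 nL of 1 mM stock went into each well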
# Mtb hypoxia rep growth: further read-out of Mtb hypoxia rep, marked with its call; growth inhibition, %; measured here: M. tuberculosis growth (absorbance);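 0% = vehicle and 100% = reference antibiotic; read after six days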
# * = called active by the depositor; / = no result given.
# Every second line gives: Sa RN4220 lethal	BJeLR viability	Sa ugtP lethal	PrP 5UTR inh	Mtb hypoxia rep	Mtb hypoxia rep growth	Bead autofluor
1	COc1ccc(/C=C/c2nnc(NC(=O)CC(C)C)s2)cc1
→ 4.6	-4	0	-14	6	1	3783
2	N#CCC(=O)NN=Cc1ccc(SCC(=O)Nc2ccccc2)o1
→ 1.5	/	1	/	2	-2	/
3	Cc1ccc([N+](=O)[O-])cc1NC(=O)c1ccc(C(C)(C)C)cc1
→ 5.8	12	9	-2	19	11	9181
4	CCCN(CC(=O)Nc1cc(Cl)cc(Cl)c1)CC(=O)Nc1ccc(F)c(F)c1F
→ 89*	-8	91*	-18	12	7	9464
5	Cc1nc2nc(C)c(CCC(=O)N3CCOCC3)c(C)n2n1
→ 3.2	3	0	-30	-3	5	8013
6	O=C(NCCc1csc(-c2cccnc2)n1)c1ccccc1
→ 5.9	-2	4	-6	-1	0	5479
7	Cc1ccc(NC(=O)c2cccc(C(F)(F)F)c2)cc1NC(=O)c1[nH]cnc1C(N)=O
→ 7.3	/	1	2	7	6	3960
8	O=c1cc(-c2ccccc2)nc(SCCOc2ccccc2Cl)[nH]1
→ 0.5	-4	4	-25	10	10	4171
9	O=C1CSC(=Nc2ccccc2[N+](=O)[O-])N1
→ 13	13	-3	-18	-1	10	2070
10	CC(=O)c1nn(-c2ccc(Cl)cc2)c(=O)[nH]c1=O
→ 4.2	15	4	-10	6	7	3118
11	CC1(C)NC(=O)N(CCCOc2ccc(Br)cc2Cl)C1=O
→ 2.5	-14	-3	-78	-13	-2	23298*
12	Cc1ccc(S(=O)(=O)c2nc(-c3ccc(F)cc3)oc2SCC(=O)NCC2CCCO2)cc1 (stereo not drawn)
→ 6.8	5	-6	-3	10	8	8007
13	CCc1ccc(NC(=O)c2cc(Br)ccc2Br)cc1
→ 13	-16	13	/	4	-2	/
14	CCCC1(CCC)C(=O)NC(=NCCc2ccc(OC)c(OC)c2)NC1=O
→ -3.4	5	4	-16	-5	-2	2408
15	CCNC(=S)NNC(=O)CSc1nc2ccccc2[nH]1
→ -5.3	-4	1	-14	-7	12	3875
16	S=C(Nc1ccccc1)N1CCn2c(nc3ccccc32)C1
→ 3.3	10	0	-18	14	9	2541
17	Cc1nc(SCc2nc3ccc(Br)cc3[nH]2)c2oc3ccccc3c2n1
→ -3.8	/	25	-28	-2	6	3072
18	CC1c2ccsc2CCN1S(=O)(=O)c1ccccc1 (stereo not drawn)
→ 4.8	1	-1	-18	13	6	4356
19	Cc1cc(O)c2c(C)c(CC(=O)N3CCN(C(=O)C4COc5ccccc5O4)CC3)c(=O)oc2c1 (stereo not drawn)
→ 2.9	6	9	15	-7	-9	4717
20	S=c1[nH]nc(C2CC2)n1Cc1ccco1
→ -1.2	-1	-1	-5	-5	13	10833
21	O=C(O)c1ccccc1/C=N/Nc1ccc(S(=O)(=O)N2CCCC2)cc1[N+](=O)[O-]
→ /	4	/	-17	/	/	5731
22	O=C(c1ccc2[nH]c(=O)c(=O)[nH]c2c1)N1CCc2ccccc21
→ 4.3	-7	5	-12	0	3	5649
23	CC(Sc1nnc(C2CC2)n1N)C(=O)NC1CCCCC1C (stereo not drawn)
→ 1.4	4	9	-24	10	1	5445
24	Cc1cccc(NC2=C(Cl)C(=O)OC2OC(=O)c2ccco2)c1 (stereo not drawn)
→ 3.3	-8	3	-10	15	2	2616
25	CN(CC(=O)Nc1cccc(F)c1)C(=O)CN1C(=O)NC2(CCCC2)C1=O
→ 3.2	/	3	-12	7	-4	3101
26	O=C(O)CSc1ncnc2scc(-c3ccccc3)c12
→ 2.7	7	0	-28	5	-3	4703
27	CN(CCC#N)C(=O)COC(=O)c1ccc(Cl)cc1O
→ 14	-6	1	-21	9	3	2677
28	CCOc1ccccc1-c1c2cc(O)c(=O)cc-2oc2cc(O)c(O)cc12
→ 13	/	-24	-15	37*	-42*	4444
29	O=C(c1ccccc1Cc1ccccc1)N1CCN(S(=O)(=O)c2ccccc2[N+](=O)[O-])CC1
→ 22	5	1	-22	12	7	5568
30	CCOC(=O)CC1(NC(=O)C2CCC(=O)N(C3CC3)C2)CCCCC1 (stereo not drawn)
→ 1.1	-3	1	-19	0	-1	7018
31	O=C(Nc1ccccc1)c1ccc(NCc2ccco2)c(S(=O)(=O)N2CCOCC2)c1
→ 13	-6	-30	-23	-9	2	9663
32	O=C(CCCN1C(=O)/C(=C/c2cccc(Br)c2)SC1=S)N1CCOCC1
→ 3.2	6	7	-7	6	10	5552
33	COc1ccc(Cn2c(=O)cc(C)[nH]c2=S)cc1
→ 2.3	0	1	2	6	1	4462
34	O=C(NCc1ccccc1)/C(NC(=O)c1ccccc1)=C(/Sc1ccccn1)c1ccccc1
→ /	-11	/	-2	/	/	3268
35	Cc1cc(C)cc(OCC(=O)NN2C(=O)c3ccccc3C2=O)c1
→ 3.6	-3	3	-10	-1	-9	1995
36	COc1cc(S(=O)(=O)NC(Cc2c[nH]c3ccccc23)C(=O)O)ccc1NC(C)=O (stereo not drawn)
→ /	-8	/	-5	/	/	5387
37	CON(C)S(=O)(=O)c1cccc(C(=O)NC2CCSc3ccccc32)c1 (stereo not drawn)
→ 2.8	-5	5	-21	5	9	5053
38	Cc1ccc(CNC(=O)CSc2nc3ccsc3c(=O)n2Cc2ccc(C(=O)O)cc2)cc1
→ 0.9	4	6	51	11	9	5226
39	COc1ccc(Cn2nnnc2C(CC(C)C)N2CCC(C(N)=O)CC2)cc1 (stereo not drawn)
→ 2.3	-1	4	-12	9	-8	4498
40	COc1ccc(NCc2ccccc2[N+](=O)[O-])cc1OC
→ 3.5	-3	7	2	-4	6	1913

# Excerpt, compounds 21 to 23
# Every second line gives: Sa RN4220 lethal	BJeLR viability	Sa ugtP lethal	PrP 5UTR inh	Mtb hypoxia rep	Mtb hypoxia rep growth	Bead autofluor
21	O=C(O)c1ccccc1/C=N/Nc1ccc(S(=O)(=O)N2CCCC2)cc1[N+](=O)[O-]
→ /	4	/	-17	/	/	5731
22	O=C(c1ccc2[nH]c(=O)c(=O)[nH]c2c1)N1CCc2ccccc21
→ 4.3	-7	5	-12	0	3	5649
23	CC(Sc1nnc(C2CC2)n1N)C(=O)NC1CCCCC1C (stereo not drawn)
→ 1.4	4	9	-24	10	1	5445

# More structures follow.
# Every second line gives: Sa RN4220 lethal	BJeLR viability	Sa ugtP lethal	PrP 5UTR inh	Mtb hypoxia rep	Mtb hypoxia rep growth	Bead autofluor
41	COC(=O)[C@@]12CCCN1[C@H](c1ccc(-c3ccc(OC)cc3)cc1)[C@@H]1C(=O)N(C)C(=O)[C@@H]12
→ /	-5	/	-2	/	/	4006
42	Cc1nc2ccccc2n1CC(=O)NC1CCCCCC1
→ 2.0	11	-2	-5	10	8	3483
43	Cc1cc(C)cc(NC(=O)C2CCCN(c3ncccn3)C2)c1 (stereo not drawn)
→ 2.6	3	-1	-14	9	11	3741
44	CCOC(=O)c1c(CSC(=N)N)n(-c2ccccc2)c2cc(Br)c(OC(C)=O)cc12
→ /	14	/	-16	/	/	3734
45	CC1CCCN(S(=O)(=O)c2ccc(S(=O)(=O)N3CCC4(CC3)OCCO4)cc2)C1 (stereo not drawn)
→ 0.3	-4	-1	-9	-5	2	2397
46	C=C(C)c1cccc(C(C)(C)NC(=O)NCC2COCCO2)c1 (stereo not drawn)
→ 4.0	-7	6	-13	12	8	6749
47	CCc1c(Nc2ccccc2Cl)nc(N)[nH]c1=O
→ 3.0	/	1	-18	5	8	3430
48	COc1ccc(NC(=O)c2ccc(N3CCCC3=O)cc2)cc1Cl
→ 2.9	/	7	-79	16	-2	3844
49	O=C1CCc2cc(NS(=O)(=O)c3cc(F)ccc3F)cc3c2N1CC3
→ 11	11	10	-7	2	0	6710
50	COCc1c(C(=O)NN=Cc2c[nH]c3ccccc23)nnn1-c1nonc1N
→ 1.9	/	-4	/	-3	7	/
51	CNS(=O)(=O)c1ccc(NC(=O)c2cnn3c(C(F)F)cc(-c4ccccc4)nc23)cc1
→ 4.8	-1	-8	-7	-6	2	3223
52	O=C(O)/C(=C\c1cn(-c2ccccc2)nc1-c1cccnc1)NC(=O)c1ccccc1
→ 2.6	-6	7	-3	-18	2	3386
53	COc1ccc(-c2nn(-c3ccccc3)cc2/C=N/NC(=O)c2cccc(S(=O)(=O)Nc3ccccc3OC)c2)cc1
→ /	0	/	-33	/	/	2362
54	N#Cc1cc(N)ccc1Sc1ccc(Cl)cc1
→ -5.6	3	-11	-22	/	/	4828
55	Cc1ccc(NC(=O)C2CCCN(C(=O)c3ccc(Cl)cc3)C2)cc1 (stereo not drawn)
→ 0.8	2	1	-17	11	8	4561
56	CC(=O)Nc1nc(-c2ccc(Cl)cc2)ns1
→ -3.3	2	9	-119	6	5	2703
57	O=C(COC(=O)c1ccc[nH]c1=O)Nc1ccc(S(=O)(=O)N2CCCC2)cc1
→ 6.1	5	5	-25	-2	4	4410
58	CC(=O)c1c(C)[nH]c(C(=O)N2CCN(c3ccccn3)CC2)c1C
→ 3.5	0	1	-17	0	-2	3553
59	O=C1c2ccccc2NC(c2ccc3c(c2)OCO3)N1O (stereo not drawn)
→ -8.0	16	-7	-4	7	4	2842
60	Cc1ccc(OCC(=O)NCCNC(=O)c2ccc(C)nc2)cc1
→ 1.5	-3	3	-15	-3	-1	3474
61	COc1ccc(COc2cc(-c3cccc(OC)c3)nc3ccc(NC(=O)c4ccccc4)cc23)cc1
→ -1.6	8	8	-26	4	-1	4204
62	COCCn1c(SCC(=O)Nc2ncc(Cl)c(C)c2Cl)nc2ccccc21
→ 1.9	-5	0	-11	9	17	9520
63	O=C(Nc1nc2cc3c(cc2s1)OCO3)c1cccc(N2C(=O)CCC2=O)c1
→ 4.7	-3	-10	-8	-7	2	3934
64	CCNC(=O)COc1ccc(F)cc1C(=O)c1cnn(-c2ccccc2)c1
→ -0.7	-2	0	-6	9	1	4176
65	CC1CCN(c2ccc(NC(=O)c3cccnc3Cl)cc2)CC1
→ 6.2	-2	8	-34	8	5	2693
66	Cc1nc(C(=NO)C(N)=O)cs1
→ 4.5	/	3	/	16	10	/
67	Cc1ccsc1C(=O)N1CCc2ccccc2C1
→ 5.7	1	10	-12	-2	-3	5242
68	COC(=O)c1c(N2C(=O)Nc3ccccc3N2O)sc(C)c1C
→ 5.1	-1	6	-3	8	0	2082
69	COc1ccc(/C=N/NC(=O)c2nnn(-c3nonc3N)c2-c2cccc(OC)c2)cc1
→ /	6	/	-13	/	/	5195
70	CCOC(=O)Cc1csc(SCc2nc3sc4c(c3c(=O)[nH]2)CCC4)n1
→ -11	/	-1	-13	6	0	2978
71	CSc1ccccc1NC(=O)COC(=O)c1c[nH]c(=O)[nH]c1=O
→ 0.9	3	4	-11	2	0	4191
72	CCOc1cc(CNn2cnnc2SCC(=O)NC(C)(C)C)ccc1OCC(=O)NC(C)(C)C
→ 3.2	2	7	-17	1	-7	2346
73	O=C(O)c1ccc(CNC(=O)c2ccccc2NC(=O)c2cccc([N+](=O)[O-])c2)cc1
→ -0.1	-6	-7	-2	-4	9	2146
74	O=C(N/N=C/c1cccnc1)c1cc(-c2cccs2)nc2ccccc12
→ /	7	/	0	/	/	2430
75	CN(C)c1nc(N(C)C)nc(N2CC(CCl)OC2=N)n1 (stereo not drawn)
→ -1.4	-5	3	-26	-7	11	2707
76	Cc1ccc(NC(=O)CSc2nsc(SCC(=O)Nc3ccc(C)cc3C)c2C#N)c(C)c1
→ /	0	/	-26	/	/	2857
77	CCOC(=O)N1CCN(C(=O)c2ccc3nc(N4CCC(C)CC4)sc3c2)CC1
→ -16	-4	-7	-16	1	7	3061
78	CCOc1ccc(Cc2n[nH]c(=S)n2N)cc1
→ 3.7	1	10	-17	11	12	2077
79	CC(=O)NC1c2ccccc2C(=O)N1Cc1ccccc1 (stereo not drawn)
→ 1.9	1	9	-3	-2	-10	3743
80	Cc1ccc(C2C3C(=O)N(C)C(=O)C3C3C(=O)Nc4ccccc4C(=O)N32)cc1 (stereo not drawn)
→ 3.3	/	-3	/	9	1	/
81	COc1cc(S(=O)(=O)N2CCOCC2)c(OC)c(S(=O)(=O)N2CCOCC2)c1
→ 4.4	7	6	-7	10	6	5714
82	COc1c2ccoc2c(OC)c2oc(=O)ccc12
→ 4.0	1	-6	-11	/	/	5004
83	COc1ccccc1/C=C/C=N/n1c(-c2ccc(C)cc2)n[nH]c1=S
→ /	6	/	-48	/	/	2030
84	O=C(NCCCn1ccnc1)C(F)(F)C(F)(F)C(=O)NCCCn1ccnc1
→ 1.7	1	-1	-6	-9	-2	9178
85	CC1=Nn2c(nc(-c3ccccc3)c2-c2ccccc2)NC(=O)C1Br (stereo not drawn)
→ -1.1	8	11	-22	/	/	4570
